# Screens deposited in PubChem BioAssay by several laboratories.
# PKD1 kinase inh: blocks activity of human protein kinase D1 | Q15139 | PKD1 kinase fluorescence polarization assay | inhibition, %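 (about 10 µM by stock and volumes)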 | hit rate 0.056% among 200,000 | AID 797;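 active = inhibition of 50% or more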;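 note: controls were vehicle for no effect and a reference inhibitor for full effect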
# Target sequence (Q15139 whole entry, looked up): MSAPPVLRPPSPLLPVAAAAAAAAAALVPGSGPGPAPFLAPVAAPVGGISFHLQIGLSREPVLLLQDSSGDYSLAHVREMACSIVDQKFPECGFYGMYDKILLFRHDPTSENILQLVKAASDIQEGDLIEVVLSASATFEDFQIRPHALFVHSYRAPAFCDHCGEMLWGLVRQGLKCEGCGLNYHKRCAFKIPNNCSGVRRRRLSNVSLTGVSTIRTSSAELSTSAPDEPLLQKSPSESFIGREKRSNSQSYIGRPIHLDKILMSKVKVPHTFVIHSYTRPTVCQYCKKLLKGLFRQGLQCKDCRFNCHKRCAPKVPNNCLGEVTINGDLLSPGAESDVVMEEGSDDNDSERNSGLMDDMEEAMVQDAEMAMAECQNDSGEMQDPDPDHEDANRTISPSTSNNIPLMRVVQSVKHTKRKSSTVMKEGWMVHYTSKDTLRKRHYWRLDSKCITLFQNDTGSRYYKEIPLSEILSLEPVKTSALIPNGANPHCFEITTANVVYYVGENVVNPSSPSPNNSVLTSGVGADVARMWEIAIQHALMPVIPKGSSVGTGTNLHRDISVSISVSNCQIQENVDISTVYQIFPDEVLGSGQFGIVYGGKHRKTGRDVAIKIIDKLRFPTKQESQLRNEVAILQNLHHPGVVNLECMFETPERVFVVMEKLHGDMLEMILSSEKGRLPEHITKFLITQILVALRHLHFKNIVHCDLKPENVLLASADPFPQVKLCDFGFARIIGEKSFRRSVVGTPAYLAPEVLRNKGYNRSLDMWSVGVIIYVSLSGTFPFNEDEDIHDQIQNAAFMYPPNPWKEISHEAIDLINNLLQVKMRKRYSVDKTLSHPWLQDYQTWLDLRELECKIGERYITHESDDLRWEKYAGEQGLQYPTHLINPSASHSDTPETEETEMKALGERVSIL
# GALR2 agonist: agonists of human galanin receptor 2 (GALR2); O43603; GALR2-expressing cells, agonist activation read-out; activation, %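 (tested at 5 µM)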; hit rate 0.48% among 140,000; AID 803;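 active = above mean plus 3 SD of all compounds, about 5% in these data, not always enough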;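 note: 0% = vehicle buffer wells and 100% = reference agonist at full effect; tested in CHO reporter cells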
# HSV augment: increases HSV replication in cells; HSV replication augmentation in cells, fold increase; maximum fold increase; hit rate 0.005% among 220,000; AID 1956;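 active = peak rise of 1.5-fold or more in the series; tested in PC3 cells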;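 note: first round at 10 µM; read as green reporter fluorescence; hits show the peak of a series up to 25 µM; 1 = signal of infected wells without compound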
# Insulin prom inh: TRM-6 insulin promoter activity inhibition; TRM-6 cells (human fetal islet line), insulin promoter-eGFP reporter, imaging; reporter expression induced with tamoxifen; inhibition, % at 2 µM; hit rate 0.9% among 130,000; AID 1273;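 active = inhibition above the mean plus 3 SD, with well images judged a real hit on visual review, cut at about 60% in these data, passing the limit was not always enough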
# RGS16-Gao: modulates binding between human RGS16 and Galphao. O15492+P09471. bead-based flow cytometry RGS16-Galphao binding, fluorescence; actives lie on both sides. binding response (% of control), % at 10 µM. hit rate 0.38% among 220,000;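 active = below 25% or above 175%, edge rows of some plates excepted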;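 note: Galphao activated by GDP with aluminum fluoride before binding; 100% = wells without compound and 0% = beads without RGS; some results beyond the cut were filed as inactive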
# Insulin prom inh cell count: also measured in Insulin prom inh; calls as there; normalized cell count, %; measured here: cell count, toxicity; reference of the scale not given here;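 cells exposed to compound for 48 h; stained nuclei by imaging scaled within each plate; lower means fewer cells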
# HSV augment primary fold: further read-out of HSV augment, marked with its call; fold increase; compound at 10 µM; measured here: primary screen fold increase 10 uM; tested in PC3 cells;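 GFP signal in the first replicate; 1 = infected wells without compound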
# * hit, by the source's call; i = inactive; x = not tested or not shown. Hits appear at their usual frequency; about 1.2% have a hit in one of these screens.
SMILES,PKD1 kinase inh,GALR2 agonist,HSV augment,HSV augment primary fold,Insulin prom inh,Insulin prom inh cell count,RGS16-Gao
CCCNC(=O)Nc1ccsc1C(=O)OC,5,x,i,0.93,x,x,106
OC(CNCc1ccc(F)cc1)(c1ccc(F)cc1)c1ccc(F)cc1,-7,-0.9,i,0.85,x,x,110
Cc1ccc2c(C)ccc(O)c2n1,0,-1.4,i,0.88,-12,60,93
CCc1ccccc1NC(=O)/C(=C/c1ccco1)c1ccccc1,1,-1.4,i,1,-31,116,92
O=C(COC(=O)c1ccncc1)NCc1ccccc1,14,-2.6,i,0.98,26,125,101
Cc1cc(C)n(CC(O)Cn2c(C)c(C)c3ccccc32)n1 (stereo not given),1,-0.5,i,1.1,-50,104,99
Cc1ccc(N2C(=O)C(Cl)=C(N3CCN(C)CC3)C2=O)c(C)c1,2,-1.4,i,1,-15,109,102
COc1cc(C(C[N+](=O)[O-])c2c(-c3ccccc3)cc3ccccn23)cc(OC)c1OC (stereo not given),-3,-2.0,x,x,-37,132,91
CCN(CC)C(=O)CSc1nnc(-c2cc(-c3ccc(Cl)cc3)nc3ccccc23)o1,-3,-1.8,i,0.9,-40,81,104
O=Cc1ccc(-n2cncn2)cc1,-3,x,i,0.87,x,x,100
CC1(C)CC(=O)C(C(C2=C(O)CC(C)(C)CC2=O)c2cccnc2)C(=O)C1 (stereo not given),-2,-0.8,i,0.97,-205,87,100
COc1ccc(CCNC(=O)C2CC3Cn4c(nc5cc(C)c(C)cc54)C3N2C)cc1 (stereo not given),x,x,i,0.63,x,x,98
COC(=O)CC1COc2ccccc2N1C(=O)c1ccc(C(C)(C)C)cc1 (stereo not given),2,-3.0,i,1.1,-64,80,101
Cc1nc(CNC(=O)c2ccccc2OC2CCN(S(C)(=O)=O)CC2)cs1,-9,x,i,0.82,x,x,105
COc1ccc(NC2(c3ccccc3)OC(=O)c3ccccc32)cc1 (stereo not given),-4,x,i,1,-4,118,x
O=C(O)C1Cc2ccccc2CN1S(=O)(=O)c1ccc(Cl)cc1 (stereo not given),-4,x,i,0.97,x,x,106
COc1ccc(CNC(=O)C(c2cccs2)N(Cc2ccco2)C(=O)Cc2cccs2)cc1 (stereo not given),-2,-2.8,i,1.1,-284,79,100
O=C(O)c1cc(O)c2c(c1)C(=O)c1cccc(O)c1C2=O,5,-2.4,i,0.89,43,71,54
CCSc1nc2ccccc2n1C(=O)/C=C/c1ccc(OC)c(OC)c1,-10,0.1,i,0.54,50,82,101
CC(=O)OC(C(=O)Nc1ccccc1C)C(OC(C)=O)C(OC(C)=O)C(OC(C)=O)C(=O)Nc1ccccc1C (stereo not given),-8,-2.8,x,x,-206,81,x
O=C(OCC(=O)N1c2ccccc2Sc2ccccc21)c1cccnc1,2,x,i,0.95,x,x,103
Cc1c(Cl)cccc1NC(=S)Nc1ccccn1,-6,x,i,0.86,x,x,103
CN(C)CCN=Cc1c(O)n(Cc2ccc3c(c2)OCO3)c(=O)c2ccccc12,-3,x,i,0.95,29,119,102
O=S(=O)(Nc1ccc(N2CCOCC2)cc1)c1ccccc1,-6,-1.1,i,0.75,-25,51,100
O=C1C=C(N2CCN(C(=O)c3ccccc3)CC2)C2(CCCCC2)O1,-3,-0.2,i,1.1,8,114,99
Cc1ccc(S(=O)(=O)N(CC(=O)NC2CCCCCC2)c2ccccc2F)cc1,-6,1.1,i,0.8,-27,102,104
CC(=O)N=c1c(C#N)cc2c(=O)n3ccccc3nc2n1Cc1ccccc1,-6,1.9,i,1.1,10,136,101
O=C(O)CCCCCNC(=O)c1cccc(Br)c1,-1,-0.2,i,0.88,x,x,105
CCOP(=O)(c1ccc(N(C)C)cc1)C(O)c1cccnc1 (stereo not given),x,x,i,1,x,x,100
O=C(NC1CCCc2ccccc21)c1ccccc1 (stereo not given),-16,-0.5,x,x,23,86,114
CCCCCC(=O)Oc1cccc(N2C(=O)C3CCCCC3C2=O)c1 (stereo not given),5,x,i,1.1,56,86,99
O=S(=O)(c1ccc(Cl)s1)N1CCN(c2ncccn2)CC1,9,-2.7,i,1,43,125,106
Cn1c(N)c(C(=O)COC(=O)C2(c3ccc(F)cc3)CCCC2)c(=O)n(C)c1=O,-1,-0.6,i,0.77,x,x,99
Cc1ccc(-c2nn3c(C)nnc3c3ccccc23)cc1S(=O)(=O)NCc1ccco1,-15,-4.5,i,0.96,-20,55,63
CN(c1ccc(C(=O)NCc2ccccc2)cc1)S(C)(=O)=O,-1,-2.2,i,1.1,-53,116,98
COC(=O)c1cc(Cl)c(NC(=O)Cc2ccccc2)cc1OC,-3,x,i,0.99,-5,98,95
COc1ccc(Cc2nnc(SCC(=O)N3CCCC3)o2)cc1,-3,x,i,0.77,x,x,92
Cc1ccnc(N2C(=O)C3C4CC(C(Br)C4Br)C3C2=O)c1 (stereo not given),-6,-2.5,i,1,35,112,94
COc1ccc(C(=O)N/C(N)=N/c2nc3ccccc3o2)cc1,-10,-2.2,i,1,x,x,92
CCN(CC)c1ncnc2c1ncn2Cc1c(Cl)cccc1Cl,4,1.1,i,0.95,-56,116,117
CC1(C)CC2CC(C)(CN2c2ncnc3ccccc23)C1 (stereo not given),-1,-0.7,i,0.97,52,170,101
O=C(COC(=O)c1cc(S(=O)(=O)N2CCCCC2)ccc1Cl)NCc1ccco1,5,x,i,0.91,6,260,98
Cc1nn(-c2ccccc2)c2sc(C(=O)N3CCc4ccccc4C3)cc12,2,-1.6,i,0.68,-12,90,102
O=[N+]([O-])c1cccc(-c2cnc3ccccc3n2)c1,x,x,i,0.94,x,x,102
CCOC(=O)C1C(=O)NC(N2CCN(c3ccccc3)CC2)=NC1c1ccccc1 (stereo not given),-4,-1.1,i,1.1,-40,114,104
O=C(Nc1cccc(Cl)c1)c1cc(S(=O)(=O)NCCc2ccc(Cl)cc2)ccc1F,2,-2.6,i,0.88,x,x,143
c1cc(C2CCN(Cc3nc(-c4ccc5c(c4)OCO5)no3)CC2)ccn1,-8,x,i,1,x,x,94
CCOc1cc(CNn2c(C)nnc2SCC(=O)NC(C)(C)C)ccc1OCC(=O)NC(C)(C)C,1,x,i,1.1,15,156,104
CN1CCN(c2ccc(S(=O)(=O)N3CCCCC3)cc2NC(=O)c2ccc3ccccc3c2)CC1,4,1.3,i,0.77,10,114,104
Cc1ccc(C2CC(c3cccc(C)c3)n3nc(N)nc3N2)cc1 (stereo not given),-1,-0.8,i,1.2,x,x,101
Cc1cc(=O)n2c(sc3ccccc32)c1C#N,0,x,i,1,-33,88,101
COc1cccc(/C=N\NC(=O)C2=NNC(=O)C2C)c1O (stereo not given),2,-0.2,i,0.99,29,137,105
COC(=O)C1=C(C)NC(=O)C1(NC(=O)c1ccncc1)C(F)(F)F (stereo not given),0,x,i,0.94,x,x,100
Nc1ccc(N2CCOCC2)cc1C(F)(F)F,4,x,i,0.92,28,112,107
COc1cccc(NC(=O)COc2cccc(-n3cnnn3)c2)c1,-12,x,i,1.1,x,x,112
c1ccc(C[n+]2cccc(-c3ccccc3)c2)cc1,-7,0.6,i,1.1,2,130,109
CC1=CC(=O)C(C(C)C)=C/C1=N/OS(=O)(=O)c1ccccc1,x,x,i,0.73,x,x,100
O=C(CCc1c[nH]c2ccccc12)NCC1CCCO1 (stereo not given),-3,-0.8,i,0.91,x,x,109
CCN(CC)S(=O)(=O)N1CCC(C(=O)NC(C)CCc2ccccc2)CC1 (stereo not given),-2,-0.9,i,1.1,-69,139,102
Cc1ccccc1-c1nc(Cc2ccc(Cl)cc2)no1,0,0.0,i,0.94,-103,68,98

# Later entries
SMILES,PKD1 kinase inh,GALR2 agonist,HSV augment,HSV augment primary fold,Insulin prom inh,Insulin prom inh cell count,RGS16-Gao
COc1cccc(-c2cc(C(=O)NN3CCOCC3)c3ccccc3n2)c1,1,-2.3,i,0.93,8,110,102
O=C(COC(=O)Cc1ccc(Br)cc1)NCC1CCCCC1,6,x,i,1.2,12,114,97
O=C(O)CNS(=O)(=O)c1c(Cl)cccc1Cl,x,x,i,1,x,x,110
Cc1ccc(NC(=O)CCc2nnc(SCC(=O)Nc3ccccc3C)n2C)cc1Cl,7,-2.4,i,0.89,x,x,112
CC(=O)c1cc(F)c(N2CCN(C(=O)COc3ccc(F)cc3)CC2)cc1C,1,-1.5,i,0.93,10,76,103
O=C(COc1cccc2cccnc12)Nc1nccs1,5,-1.9,i,0.87,-6,109,91
CC(=O)N1CCN=C1SCc1ccc(C)cc1,-1,-2.4,i,0.95,10,62,100
CCOC(=O)c1c(-c2ccccc2)csc1NC(=O)C(C)NCc1ccco1 (stereo not given),4,0.2,i,1.1,x,x,102
CCOC(=O)C1CCN(CCC(=O)Nc2ccc(F)cc2)CC1,-1,x,i,1,-8,67,134
